# Bioassay records (PubChem)
# HIV TAR-Tat = TAR RNA-Tat peptide displacers, HIV-1, primary screen, biochemical, FRET, FAM/TAMRA-labeled Tat; HIV-1 TAR RNA, Tat peptide displacement FRET; stronger effect = higher value; z-score (concentration not given with the values); hit rate 0.6% among 100,000; AID 1259389, 2018;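 also: score is relative to mean and SD of negative controls; some compounds called inactive have numbers as strong as hits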
# CDC25B-CDK2 inh = primary biochemical HTRF screen for blockers of M-phase inducer phosphatase 2 binding to CDK2/cyclin A | P30305+P24941 | HTRF CDC25B-CDK2/CyclinA binding, anti-His/anti-Flag; stronger effect = higher value | z-score (no concentration beside the values) | hit rate 0.72% among 94,000 | AID 1259370, 2018;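 also: score is relative to mean and SD of negative controls; strong numbers were not always called active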
# * hit, by the source's call; · = no result given; & = joins results of further samples.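 The calls were made as follows: active = z-score from 3 up in half or more of its runs; inactive = the rest.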
SMILES,HIV TAR-Tat,CDC25B-CDK2 inh
CCc1ccc(C2CC(=O)Oc3c2c(=O)n(C)c2ccccc32)s1 (configuration not stated),2.2,-1.1
O=C(c1ccc(CS(=O)c2ccc(Cl)cc2)o1)N1CCN(c2ccc(F)cc2)CC1 (configuration not stated),-1.2,-1.4
COc1ccc(C(=O)CSc2nnc(Cc3cc(=O)[nH]c(=O)[nH]3)n2-c2ccc(Cl)cc2)cc1,-0.63,·
CCOC(=O)CSc1nn(C)c2nc3c(c(=O)n12)C(CC)(CC)Cc1ccccc1-3,0.97,1.5
CCN(CC)C(=O)CCc1nc(CN2CCN(S(=O)(=O)c3cccs3)CC2)no1,-6.7,·
COc1ccc(NC(=O)Nc2sc3nc4n(c(=O)c3c2C)CCC(C)CC4)cc1OC (configuration not stated),-0.74,-1.6
O=S(=O)(Nc1ccc(Br)c2cccnc12)c1ccccc1,0.45,1.4
CN(C)c1ncnc2c1C(c1ccc(Br)cc1)c1c(ncnc1N(C)C)O2,-4.5,0.36
COc1ccc(-c2noc(CN3C(C)CCCC3C)n2)cc1OC (configuration not stated),0.17,-1.1
O=S1(=O)C[C@H](NCC2CCCO2)[C@@H](S(=O)(=O)c2ccccc2)C1 (some centres not stated),-0.6,-2.1
Cn1c(CCc2cccc(NC(=O)NCC3CCCO3)c2)nc2ccccc21 (configuration not stated),0.79,·
Cc1nn2cnnc2c(C)c1CCC(=O)NCCCc1ccco1,-0.32,·
CC(=O)c1ccc(NC(=O)CSc2ccc3nnc(-c4ccc(C)cc4)n3n2)cc1,·,-0.19
O=C1C2C3c4ccccc4C(c4ccccc43)C2C(=O)N1c1ccc(F)cc1 (configuration not stated),2,-1.4
O=C(O)/C=C/C(=O)NCC1CC1,·,-0.44
O=C(CCc1ccccc1)Nc1nnc2n1CCS2,0.15,·
O=c1[nH]c(=O)n(CCc2ccccc2)c2c1CN(C1CCCCC1)CN2,-0.34,-0.79
O=C(Nc1ccccc1F)c1cc2c(s1)-c1ccsc1CC2,0.72,·
Fc1ccc([C@@H]2CCNC[C@H]2COc2ccc3c(c2)OCO3)cc1,-1.8&-0.2,-1.3
CCCNc1ncnc2c1cnn2-c1ccc(C)c(C)c1,1.1,·
O=C(NCC(c1ccco1)S(=O)(=O)c1cccs1)C1CCCCC1 (configuration not stated),2.6,·
Cc1ccc(S(=O)(=O)[C@H]2CS(=O)(=O)C[C@@H]2NC(C)C)cc1,-2.5,-2.2
Cn1c(=O)c2c(nc(N(CCO)CCO)n2Cc2ccc(F)cc2)n(C)c1=O,·,-1.5
Cc1cc(Nc2ccc(Br)cc2)n2nc(-c3ccco3)nc2n1,0.66,·
CCn1c(=O)c(N2CCCC(C(=O)O)C2)nc2cccnc21 (configuration not stated),1.6,2
COc1ccc(-c2cc3nccc(-c4cc(C)ccc4O)n3n2)cc1,0.76,-2.4
CCCc1c(C(=O)OCC)c2cc(NS(C)(=O)=O)ccc2n1S(C)(=O)=O,14,-0.88
C=CCN(Cc1nc(-c2ccc(Cl)cc2)no1)S(=O)(=O)c1ccc(C)cc1,2,-2.6
CN(Cc1ccco1)S(=O)(=O)c1nnc(NC(=O)C2CCCCC2)s1,2.2,-1.2
COc1ccc(C(=O)c2c(N)c(-c3nc(-c4ccc5c(c4)OCO5)cs3)c3ccccn23)cc1,1.9,1.6
Cc1ccccc1-c1nnc(CN2CCN(c3ccccn3)CC2)o1,0.57,-0.77
CCOC(=O)N1CCN(C(=O)CC(C)S(=O)(=O)c2ccc3c(c2)NC(=O)CO3)CC1 (configuration not stated),-0.36,·
Clc1ccc(-c2nnc3n2N=C(c2ccccc2)CS3)cc1,2.5,-0.38
O=C(NC1CC1)c1cccc(N2CCCS2(=O)=O)c1,0.33,·
CCn1c(=O)c(N2CCN(C(=O)CCC3CCCC3)CC2)nc2ccccc21,1.1,-2.2
O=S(=O)(NC1CCCC1)c1ccc2[nH]c3c(c2c1)CCCCCC3,-0.16,·
CC(C)CCNC(=O)CC1(CC2=NS(=O)(=O)c3ccccc3N2)CCCC1,1.4,·
COc1cccc(-c2noc3ncnc(Nc4ccc(-c5ccno5)cc4)c23)c1,0.04,·
CC1C/C(=N\Nc2cc(Cl)cc(Cl)c2)c2cc(Cl)ccc2S1(=O)=O (configuration not stated),·,-2.2
CN(C(=O)CSc1nc(-c2ccccc2F)nc2cc(=O)[nH]n12)c1ccccc1,0.03,·
CC1=C(C(N)=O)C(c2cccc(C)c2)n2nc(-c3cccc(C)c3)nc2N1 (configuration not stated),0.94,-0.72
CCOC(=O)N1CCc2c(sc3c2C(=O)NC(/C=C\c2ccccc2)N3)C1 (configuration not stated),0.41,1.8
COc1cc(C)c2c(=O)cc(-c3ccccc3)oc2c1,1,·
Cn1c(=O)c2c(SCC(=O)N3CCCC3)nc(-c3cccs3)nc2n(C)c1=O,·,-1.9
Cc1[nH]c2ccc(-c3nnc(SCC(=O)NCC4CCCO4)o3)cc2c1C (configuration not stated),2.3,-2
O=C(N(CC1=CCS(=O)(=O)C1)c1ccccc1)C12CC3CC(CC(C3)C1)C2,·,-1.5
CC(C)N(Cc1ccccc1)S(=O)(=O)c1ccc2[nH]c3c(c2c1)CCCC3,0.48,·
CCOC(=O)CNC(=O)CSc1nc2c(c(=O)n1C)SCC2,2.3,-2.2
CC1(C)CC2(CC(C)(C(=O)CSc3n[nH]c(-c4ccccc4Cl)n3)OC2=O)C(=O)O1 (configuration not stated),·,0.86
O=S(=O)(Oc1ccc(-c2csnn2)cc1)c1cc(C(F)(F)F)cc(C(F)(F)F)c1,·,-0.56
O=C(NCc1ccco1)c1cc2c(=O)n3ccccc3nc2s1,·,0.77
Cc1ccc(-c2c(NCc3ccc(F)cc3)c(=O)c2=O)cc1C,1.8,·
Cc1cc(C)nc(NC(=O)CSc2nccc(C)n2)n1,0.82,-0.41
Cc1ccc2oc(C(=O)N(Cc3ccccc3Cl)C3CCS(=O)(=O)C3)cc(=O)c2c1 (configuration not stated),-0.49,-0.51
CC(=O)c1cc2cc(Cl)cc(Cl)c2oc1=O,·,-0.8
O=C(Nc1nc2ccccc2s1)C1c2ccccc2C(=O)N2CCc3ccccc3C12 (configuration not stated),·,-0.2
Clc1cc2c(cc1CSc1ncnc3nc[nH]c13)OCO2,-0.3,-1.3
CCN1CCN(c2cc(N3CCCCC3)c3c4c(onc24)-c2ccccc2C3=O)CC1,-4.5,1.2
CNS(=O)(=O)c1ccc2c(c1)NC(=O)C1CCCCN21 (configuration not stated),0.93,·
O=C(Nc1ccc(F)cc1)Nc1nnc(Cc2cccc(Br)c2)s1,·,-2.2

# (cont.)
SMILES,HIV TAR-Tat,CDC25B-CDK2 inh
O=C1Nc2c(S(=O)(=O)N3CCOCC3)cc(S(=O)(=O)N3CCOCC3)c3cccc1c23,-1,-0.09
Nc1c(-c2nc(-c3ccc(Br)cc3)no2)nnn1-c1ccc(F)cc1,1.4,·
COc1cc([C@@H]2c3cc4c(cc3[C@@H](OC3OC5COC(C)OC5C(O)C3O)[C@H]3COC(=O)[C@H]23)OCO4)cc(OC)c1O (some centres not stated),-0.73&0.39,·
O=C(Cn1c(-c2cccs2)cc2ccccc21)N1CCN(c2ccccn2)CC1,0.39,·
O=C1CSc2ccc(S(=O)(=O)N3CCOCC3)cc2N1Cc1ccc(Cl)cc1,-2.1,·
CC1CCc2c(sc3nnn(CC(=O)c4cccs4)c(=O)c23)C1 (configuration not stated),0.78,-0.98
O=C1CC(c2ccc(Br)cc2)C2=C(CC(c3ccccc3Cl)CC2=O)N1 (configuration not stated),-1.7,1.7
COc1cc(NC(=O)Cn2cnc3nc4c(cc3c2=O)CCCC4)cc(OC)c1,1.1,·
Cc1cc(NC(=O)COCc2cc(-c3ccc4c(c3)OCO4)on2)no1,-0.04,·
CCOCCCNC(=O)C1CCCN(S(=O)(=O)N(C)C2CCCCC2)C1 (configuration not stated),4.2,·
COc1cc(OC)c(N2C(=O)C=CC2=O)cc1Cl,·,-0.27
COc1ccc(/C(C)=N/OC(=O)c2sc3ccccc3c2Cl)cc1CN1CCCC1,·,-0.5
Clc1ccc(-c2csc(-c3ccsc3)n2)s1,·,-2
Cc1c(Cc2c(C)n(C)n(-c3ccccc3)c2=O)c(=O)n(-c2ccccc2)n1C,·,0.05
O=C1c2cccc3cccc(c23)C(=O)N1CCCNCCO,-0.72,0.02
Cc1cc(C)cc(NC(=O)CSc2nc3ncccc3o2)c1,1.6,·
CCS(=O)(=O)N1CCC2(CC1)OC(=O)C(C)=C2C(=O)N1CCC(C)CC1,0.46,·
Cc1cc(F)ccc1NS(=O)(=O)c1cc2c(cc1Cl)NC(=O)CO2,-7.7,·
CCCNC(=O)N1CCN(Cc2nc3cc(S(=O)(=O)N(CC)CC)ccc3n2C)CC1,1.3,·
O=C(NC1CCCC1)c1cc2c(Cl)ccc3c2n1CCO3,2.4,·
CCCc1nn2c(=O)cc(COC(=O)C(C)Oc3ccccc3)nc2s1 (configuration not stated),1.6,·
CC1CCCCC1NS(=O)(=O)c1ccc(S(=O)(=O)N2CCN(c3ncccn3)CC2)cc1 (configuration not stated),0.33,1.1
Cc1ccc(CNc2nc(N)c([N+](=O)[O-])c(NCc3ccco3)n2)cc1,0.73,·
O=C1c2ccccc2C(=O)N1CCn1c(=O)oc2ccccc21,·,0.45
O=C(CSc1nc(-c2ccccc2)cc(=O)[nH]1)c1ccc([N+](=O)[O-])cc1,·,-1.9
CCCSc1nnc2c(n1)OC(c1cccs1)Nc1ccc(Br)cc1-2 (configuration not stated),·,-8
CCn1cnc2c(=O)oc3ccc(S(=O)(=O)NCc4ccc5c(c4)OCO5)cc3c21,1.1,-1.5
Cc1cc(-c2ccccc2)nc(Nc2nc(C)c3ccccc3n2)n1,·,-1.4
Cc1ccc(C2CC(=O)c3cnc4[nH]n(-c5ccccc5)c(=O)c4c3C2)cc1 (configuration not stated),1.1,-0.85
COC(=O)c1c(N)n(-c2cc(C)cc(C)c2)c2nc3ccccc3nc12,·,-6.9
CNC(=O)c1c(NC(=O)COc2ccc(Cl)cc2)sc2c1CCC2,-0.13,·
CCOc1cc(C2NC(C(=O)O)CS2)ccc1OCc1ccc(C)cc1 (configuration not stated),·,-0.24
Cc1c(S(=O)(=O)c2ccc(Cl)cc2)csc1C(=O)Nc1ccc(F)cc1F,·,-0.26
O=C(Cn1c2ccccc2c(=O)c2ccccc21)NCc1cccs1,1.4,-1.4
O=C(O)C1=CC(c2ccc(Br)cc2)n2ncnc2N1 (configuration not stated),0.74,0.72
CCCC(=O)Oc1c[nH]c2ccccc12,·,-2
COC(=O)c1sc(N2C(=O)c3oc4ccc(C)cc4c(=O)c3C2c2ccc(O)c(OC)c2)nc1C (configuration not stated),0.52,-0.56
CC1CCCCN1S(=O)(=O)c1ccc(C(=O)Nc2ccccc2-c2nc3ccccc3o2)cc1 (configuration not stated),·,-1.9
Cc1ncc(-c2ccc(C)c(S(=O)(=O)Nc3ccc(F)cc3)c2)o1,1.1,·
O=C(Cn1ccc2cc(S(=O)(=O)N3CCCCC3)ccc21)NC1CCCCC1,0.7,·
Cc1ccc(C(=O)N2N=C(C3CCCCC3)CC2(O)C(F)(F)F)o1 (configuration not stated),·,0.03
CNC(=O)c1nn(-c2ccc(Cl)cc2)nc1CO,0.34,-0.75
CC(=O)Oc1ccc2c(c1)CCC1C2CC[C@]2(C)C(=O)CCC12 (some centres not stated),5.2,·
O=C(COc1ccc(Cl)cc1)Nc1onc2c1CCCC2,-0.67,-1.4
CCc1ccc(S(=O)(=O)c2cn(C)c3ccc(Cl)cc3c2=O)cc1,0.8,-1.4
N#C/C(=C\c1ccc(C#Cc2ccccc2)cc1)C(=O)c1ccco1,·,-1.3
Cc1nc(Nc2ccccc2)c2c3c(sc2n1)CCCC3,1.5,·
Cc1c(C(=O)C(=O)NC2CCCCC2C)c2ccccc2n1C (configuration not stated),·,0.15
c1ccc(CNc2nc(N3CCCCC3)nc3ccccc23)cc1,·,-2.6
O=S1(=O)C[C@H](NCc2ccccn2)[C@@H](S(=O)(=O)c2ccc(Cl)cc2)C1,0.16,-0.94
COC(=O)C(C)Sc1ccc2nnc(-c3cccc(F)c3)n2n1 (configuration not stated),·,-1.6
Cc1ccccc1-c1noc(-c2nnn(-c3ccc(F)c(Cl)c3)c2N)n1,-1.4,·
Nc1nc2ccc(NC(=O)c3ccc4nc(N)sc4c3)cc2s1,·,-2

# Of the compounds above, these contain an aryl thioether with sulfur outside any ring:
SMILES,HIV TAR-Tat,CDC25B-CDK2 inh
COc1ccc(C(=O)CSc2nnc(Cc3cc(=O)[nH]c(=O)[nH]3)n2-c2ccc(Cl)cc2)cc1,-0.63,·
CCOC(=O)CSc1nn(C)c2nc3c(c(=O)n12)C(CC)(CC)Cc1ccccc1-3,0.97,1.5
CC(=O)c1ccc(NC(=O)CSc2ccc3nnc(-c4ccc(C)cc4)n3n2)cc1,·,-0.19
CN(C(=O)CSc1nc(-c2ccccc2F)nc2cc(=O)[nH]n12)c1ccccc1,0.03,·
Cn1c(=O)c2c(SCC(=O)N3CCCC3)nc(-c3cccs3)nc2n(C)c1=O,·,-1.9
Cc1[nH]c2ccc(-c3nnc(SCC(=O)NCC4CCCO4)o3)cc2c1C (configuration not stated),2.3,-2
CCOC(=O)CNC(=O)CSc1nc2c(c(=O)n1C)SCC2,2.3,-2.2
CC1(C)CC2(CC(C)(C(=O)CSc3n[nH]c(-c4ccccc4Cl)n3)OC2=O)C(=O)O1 (configuration not stated),·,0.86
Cc1cc(C)nc(NC(=O)CSc2nccc(C)n2)n1,0.82,-0.41
Clc1cc2c(cc1CSc1ncnc3nc[nH]c13)OCO2,-0.3,-1.3
Cc1cc(C)cc(NC(=O)CSc2nc3ncccc3o2)c1,1.6,·
O=C(CSc1nc(-c2ccccc2)cc(=O)[nH]1)c1ccc([N+](=O)[O-])cc1,·,-1.9
CCCSc1nnc2c(n1)OC(c1cccs1)Nc1ccc(Br)cc1-2 (configuration not stated),·,-8
COC(=O)C(C)Sc1ccc2nnc(-c3cccc(F)c3)n2n1 (configuration not stated),·,-1.6
